# ClpP mod: qHTS Assay for Activators of ClpP; Potency, µM (doses to about 57.5 µM), for inactives: top-dose activity change, negative = active; 340,000 compounds, 1.9% hits; purified B. subtilis ClpP, FRET peptide cleavage, 20 min; AID 651965, 2013; active = well fitted falling curve with a large enough effect; inconclusive = small, poorly fitted or top-dose-only effect; inactive = no such curve, though single readings can be large or run the other way; note: potency is the fitted concentration of half-maximal effect; the source files actives as falling curves though it sought activators and does not explain the sign; nearly all actives have a fitted effect of over 65% in size; many hits overshoot -100%
# Target sequence (P80244 whole entry, looked up): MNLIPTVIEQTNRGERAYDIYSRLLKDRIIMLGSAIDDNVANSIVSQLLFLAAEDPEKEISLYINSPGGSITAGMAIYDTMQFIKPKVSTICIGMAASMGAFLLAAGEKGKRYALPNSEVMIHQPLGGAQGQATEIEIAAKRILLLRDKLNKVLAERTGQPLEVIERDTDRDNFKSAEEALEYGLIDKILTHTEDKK
#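 Purified B. subtilis ClpP, 10 microg/mL final in Tris/HCl pH8 with KCl, BSA, glycerol and Tween-20, cleaved an Abz/nitrotyrosine-quenched decapeptide. Fluorescence (ex 320, em 430) was read at 0 and 20 min at room temperature. Delta was normalized to 5.8 microM ADEP and DMSO/no-enzyme controls.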
# gsp ag: gsp mutant agonism | Potency, µM (titrated, usually from 76.9 µM), inactives show at the top dose activation (cAMP increase), actives largely listed as activators | gsp mutant cells, cAMP HTRF, 30 min; control for the full effect not named in the record | 340,000 compounds, 0.13% hits; active = well fitted activation curve with a large enough effect; inconclusive = small, poorly fitted or top-dose-only effect, or another doubt; inactive = no such curve, though single readings can be large or run the other way; cell line not stated here;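 note: phosphodiesterase inhibitor Ro 20-1724 added with compounds to block cAMP breakdown; potency is the fitted concentration of half-maximal effect; nearly all actives have a fitted effect of over 60% in size; about a fifth of the inactives were tested at one dose only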
#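 Cells in DMEM/10% FBS with G418 were pretreated with compounds in DMSO plus […] (300 uM stock) for 30 min at 37C. cAMP was measured by HTRF (cAMP-d2 plus anti-cAMP antibody-K) after 30 min at room temperature.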
# Menin MLL FP FL: inhibitors of human menin-MLL interaction, wild-type MLL peptide | 290,000 tested, under 10 active | AID 1766 | Fluorescence polarization, fluorescein-MLL peptide displacement from menin | FP activity change, % at 61.4 µM; inconclusive = falling polarisation curve, or a change in total fluorescence; inactive = total fluorescence flat and polarisation flat or rising; no compound was filed as active; the % refers to the polarisation; negative = inhibition;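 note: % of control where 0% means no effect; inhibitors lower the polarisation; unlabelled MLL peptide was the positive control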
# TRPML1 agonist: agonists of human TRPML1 channel; Q9GZU1; TRPML1-expressing cells, Ca2+ dye fluorescence, FDSS; host cell line not named in the record; reference of the full effect not given here; activation, % (test concentration not listed); AID 624414; 410,000 compounds, 0.12% hits; in the data active = activation above about 50%; inconclusive = about 30% to 50%; inactive = below about 30%; note: 0% is about no effect; the text of the record puts the active cut at 80%
# Target sequence (Q9GZU1 whole entry, looked up): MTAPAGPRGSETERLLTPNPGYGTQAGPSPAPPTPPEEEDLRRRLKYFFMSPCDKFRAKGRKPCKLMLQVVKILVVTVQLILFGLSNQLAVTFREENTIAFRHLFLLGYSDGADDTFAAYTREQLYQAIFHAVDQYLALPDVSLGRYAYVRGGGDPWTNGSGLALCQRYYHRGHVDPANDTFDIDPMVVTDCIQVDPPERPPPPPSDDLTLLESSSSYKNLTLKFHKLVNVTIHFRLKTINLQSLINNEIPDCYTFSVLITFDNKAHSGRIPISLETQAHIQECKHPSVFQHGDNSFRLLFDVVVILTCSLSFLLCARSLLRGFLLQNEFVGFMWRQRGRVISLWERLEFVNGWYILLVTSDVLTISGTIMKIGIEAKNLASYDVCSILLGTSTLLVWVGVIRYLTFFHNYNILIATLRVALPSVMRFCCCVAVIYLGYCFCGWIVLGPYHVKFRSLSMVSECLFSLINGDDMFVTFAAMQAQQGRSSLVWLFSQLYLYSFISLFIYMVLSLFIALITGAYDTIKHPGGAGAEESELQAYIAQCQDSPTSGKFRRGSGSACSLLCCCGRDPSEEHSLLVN
#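 Kinetic FDSS Ca2+ read in Tet-induced TRPML1-DL cells (ABD Ca8 dye plus quencher, 45-90 min RT loading): baseline, then compound, then 110 s agonist window; EC80 agonist 54-4 at 4uM final added afterwards for a 110 s antagonist window.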
# TRPML1 inh: blocks the human TRPML1 channel | TRPML1-inducible cells, Ca2+ dye fluorescence, FDSS; hits give low values; inhibition of EC80 agonist-evoked calcium signal | Q9GZU1 | 390,000 compounds, 0.02% hits | activity change, negative = inhibition, % (test concentration not listed); in the data active means activity change below about -50%; inconclusive means about -30% to -50%; inactive means above about -30%;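 note: stimulus is agonist 54-4 at its EC80 concentration; % is set by controls: 0 for no effect and ±100 for the full control effect; compound concentration not given in the record; the text of the record puts the active cut at -80%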
#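 Tet-induced TRPML1-DL cells loaded with Ca8 no-wash calcium dye were read kinetically on FDSS. Compound addition was followed by EC80 agonist 54-4 (4 uM final); inhibition was read over 110 s.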
# gsp antagonist: gsp mutant antagonism | gsp-mutant cells, cAMP HTRF, 30 min; control for the full effect not named in the record | Potency, µM (highest dose often 76.9 µM), without a hit: at the top dose activity change, negative = inhibition, usual class: inhibitors | 340,000 compounds, 0.4% hits | AID 624288; active = falling curve of any shape with a large fitted effect; inconclusive = falling curve, mostly with a smaller effect; inactive = flat or rising curve; cell line not stated here;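 note: intracellular cAMP measured with PDE inhibitor Ro 20-1724 present during compound exposure; potency is the fitted concentration of half-maximal effect; % is set by controls: 0 for no effect and ±100 for the full control effect; nearly all actives have a fitted effect of over 65% in size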
#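 Measurement of cellular cAMP by homogeneous time-resolved fluorescence following a 30 min compound exposure at 37C. The PDE inhibitor […] was present throughout; the assay buffer was DPBS with 0.05% BSA and 0.005% Tween 20.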
# * hit, by the source's call; ? = inconclusive; . = not tested or not shown; & = joins results of further samples; [ ] = dose if it differs, or a comment.
SMILES,ClpP mod,gsp ag,Menin MLL FP FL,TRPML1 agonist,TRPML1 inh,gsp antagonist
Cc1c(C(=O)NC(C)c2ccncc2)oc2ccccc12 (stereo not drawn),2.2%,7.7%,2.7,0.2,3.2,9.4%
CC1SC(c2ccc(F)cc2)N(CCc2ccccc2)C1=O (stereo not drawn),.,-4.1%,37.3[activator],0.6,2.7,-3.7%
COCCN1C(=O)C(=O)/C(=C(/O)c2ccc(S(=O)(=O)N3CCCCC3)cc2)C1c1ccc(OC)cc1 (stereo not drawn),-4.2%,-28.6%,-4.3,0.1,31.5,12.0%
CCOc1ccc(C(=O)/C=C/c2cn(CC(O)CN3CCCCCC3)c3ccccc23)cc1 (stereo not drawn),-1.6%,.,.,0.4,-5.0,.
CCOC(=O)C1CCN(C(=O)c2cccc(S(=O)(=O)NCc3ccccc3)c2)CC1,0.0%,11.8%,.,-0.4,-3.7,-6.1%
CC(C)Cc1nc(N2CCN(C(=O)c3ccccc3)CC2)c(C#N)c2c1CCC2,31.6µM*,-17.9%,1.3,2.9,26.6,-18.2%
CCOC(=O)Cn1nc(C)c([N+](=O)[O-])c1C,-2.2%,?,0.1,-0.5,-11.5,-2.4%
c1csc(-c2cn3c(n2)SCC3)c1,?,8.7%,7.3,-0.4,26.1,-6.8%
Cc1ccc2c(C(=O)CN3CCCCC3)c(C)[nH]c2c1,-1.2%,1.3%,20.3,2.3,7.3,7.2%
O=C(CSc1cc(Cl)ccc1Cl)NC1CC1,0.2%,-5.3%,.,-0.8,6.0,9.9%
O=C(COc1ccccc1)N1CCN=C1SCc1ccccc1F,.,4.1%[15.4 µM],4.3,0.4,-29.9,-2.1%
CCCCN(C)C(=O)c1nc2ccccn2c1CN1CCN(c2ncccn2)CC1,-6.3%,10.4%,1.5,-0.1,2.6,-3.1%
CC(C)Oc1ccc(CNC(=O)C2CCCCN2S(=O)(=O)c2ccc(F)cc2)cc1 (stereo not drawn),-0.3%,.,.,1.8,29.8,.
CCc1ccc(-c2cc(C)no2)cc1S(=O)(=O)Nc1ccc(Cl)cn1,-10.2%&-8.2%,0.4%,.,-0.6&-0.1,-1.0&5.0,-21.1%
Cc1ccc2c(c1)N(C)/C(=C/c1cccc[n+]1CCO)S2,-0.1%,?,22.1,0.4,7.8,?
CC(C)OC(=O)c1cccnc1SCC(=O)N(C)c1ccccc1,-1.5%,2.1%,0.8,2.9,1.4,-8.4%
O=C(NCC(O)c1ccc([N+](=O)[O-])cc1)Nc1ccccc1 (stereo not drawn),-1.3%,-1.7%,-3.4,0.4,-9.7,9.2%
COc1ccc(OC(C)c2ccc(C#N)c(=O)[nH]2)cc1 (stereo not drawn),.,14.1%,1.6,0.4,16.1,-8.3%
CCOC(=O)C1/C(=N\O)CC(C)(O)C(C(=O)OCC)C1c1ccc(OC)c(OC)c1 (stereo not drawn),-1.0%,-13.7%,0.5,-0.5,10.9,-22.5%
O=C(Nc1ccc(Cl)cn1)c1ccc2ccccc2n1,-0.7%,-0.3%,2.5,0.1,-10.5,6.4%
Cc1cc(-c2ccccc2)[nH]c(=O)c1S(=O)(=O)c1ccccc1,14.1µM*,5.2%,1.5,0.8,17.4,-9.5%
O=c1c(=Nc2ccccc2O)c(=O)c2ccccc12,.,-0.4%[15.4 µM],0.4,-0.5,-4.5,-14.8%
Cc1ccc(C2=NN(CCC(=O)NCCc3cccc(C)c3)C(=O)CC2)cc1,-2.0%,.,.,2.3,-13.1,.
Cc1cc(Cl)c(S(=O)(=O)N2CCSCC2)cc1OCC(=O)NC1CCCCC1,-2.2%,-3.4%,0.9,0.3,0.2,?
CC(=O)N1CCN(S(=O)(=O)c2cccc(C(=O)Nc3ccccc3N3CCOCC3)c2)CC1,-1.9%,-20.9%,2.5,2.3,-8.8,-2.6%
O=C(NCC(c1ccco1)N1CCCCC1)c1cccnc1 (stereo not drawn),0.2%,-19.7%,.,-0.8,-6.2,9.0%
CC(C)CN(C(=O)CSc1nc2ccccc2[nH]1)c1c(N)n(Cc2ccccc2)c(=O)[nH]c1=O,-0.1%,-5.5%,.,0.0,0.3,.
Cc1ccc(-n2ccn(CC(=O)NCCc3ccccc3)c(=O)c2=O)cc1C,1.8%&1.7%,17.3%,-2.5,0.7&-0.2,15.2&26.0,5.4%
COc1ccc(N2CCN(C(=O)c3cn(C)c4ccc(S(=O)(=O)N(C)C5CCCCC5)cc4c3=O)CC2)cc1,0.3%,.,.,0.2,27.2,.
CC(=O)NCCc1nc2ccccc2n1CCCCOc1ccccc1,0.0%,-26.0%,2.9,1.0,2.7,-1.9%
CC(=O)Nc1ccc(NC(=O)C(C)OC(=O)c2cc(S(=O)(=O)N(C)C)ccc2N2CCCC2)cc1 (stereo not drawn),-3.7%,6.0%,.,0.0,-24.0,10.4%
COc1cccc(CSc2nc3n(n2)C(c2ccccc2C)C(C(=O)Nc2ccccc2OC)=C(C)N3)c1 (stereo not drawn),?,.,.,0.6,20.8,.
O=c1[nH]c(=S)[nH]c2scc(-c3ccc(Br)cc3)c12,0.0%,44.8%[15.4 µM],.,-0.9,27.2,-18.8%
C[C@H](CO)N1C[C@H](C)[C@@H](CN(C)S(=O)(=O)c2cccs2)Oc2c(NC(=O)C3CC3)cccc2C1=O,-1.5%,.,.,0.4,-6.0,1.0%
CCOc1ccc(NC(=O)COC(=O)c2ccc3c(c2)C(=O)N(CCc2ccccc2)C3=O)cc1,4.1%,-1.1%,-0.7,-0.1,16.2,-16.2%
CCOc1c2ccoc2nc2c(OC)c(OC)ccc12,4.0%,-5.3%,3.1,0.8,-1.4,0.4%
O=S(=O)(c1ccc(Cl)cc1)n1ccc2cccnc21,0.1%,?,1.2,1.7,7.4,-13.4%
OC(COCc1cccs1)CN1CCN(c2ccccc2Cl)CC1 (stereo not drawn),-2.0%,12.6%,-3.3,0.6,20.9,1.9%
Cc1ccc(C(=O)O)c(C(=O)Nc2nc(C)cs2)c1,0.7%,15.1%,2.5,-0.3,-0.7,8.0%
Cc1nnc(NC(=O)c2cccc(F)c2)s1,0.7%,?,4.6,-1.3,1.5,3.1%
O=C(Nc1ccccc1)/C(=C1\CCCN1)[N+](=O)[O-],.,-3.6%[15.4 µM],-1.8,1.0,1.3,7.8%
CCn1c(=S)sc2nc(C)sc21,-0.1%,8.7%,.,0.0,-9.9,8.0%
O=C(NCCCn1ccnc1)/C(=C\c1ccccc1Cl)NC(=O)c1ccccc1,-1.8%,-58.5%[inhibitor],.,-0.1,12.3,6.3%
COc1cccc(CNC(=O)Cn2c(=O)n3nc(-c4cccc(C)c4)nc3c3ccccc32)c1,-6.6%,.,.,0.7,-16.0,.
O=C1CC(c2ccc(Cl)cc2)SC(N(c2ccccc2)c2ccccc2)=N1 (stereo not drawn),-2.2%,-50.5%[inhibitor],-1.2,3.9,-21.7,?
Cc1ccc(C)c(NC(=S)N(Cc2cccc(Br)c2)CC2CCC(C(=O)O)CC2)c1 (stereo not drawn),0.5%,-16.9%,5.1,0.3,10.2,-24.9%
O=C(O)C(c1ccccc1)C(O)C1CC=CCC1 (stereo not drawn),-0.1%,-3.7%[15.4 µM],.,0.8,6.6,-2.3%
COc1ccc(OC)c(/C=C/C(=O)N2C(=O)c3cccc(N)c3C2=O)c1,2.0%,9.3%,-28.8,0.0,-6.9,24.3%
CC(C)(C)/C(O)=C(/C#N)c1nc2ccccc2[nH]1,0.1%,11.9%,-0.6,-0.9,1.4,7.9%
COc1ccc(C=O)cc1Cn1ccnc1,-0.2%,-2.2%,-5.9,1.1,14.1,15.1%

# New compounds follow
SMILES,ClpP mod,gsp ag,Menin MLL FP FL,TRPML1 agonist,TRPML1 inh,gsp antagonist
Cc1ccc(-c2cc(C(=O)Nc3c(C)n(C)n(-c4ccccc4)c3=O)c3ccccc3n2)cc1,-5.2%,-3.3%[15.4 µM],.,1.8,-9.9,-7.4%
CC(Oc1ccc2c(-c3ccccc3)cc(=O)oc2c1)C(=O)N1CCC[C@@H]1C(N)=O (stereo partly drawn),-9.8%,.,1.5,.,.,-18.6%
Cc1ccsc1C1Nc2ccc3ncccc3c2C2=C1C(=O)CCC2 (stereo not drawn),-28.0%,-7.4%,1.1,0.0,-3.9,?
COc1cc2c(c(OC)c1)C(c1cc(OC)c(OC)c(OC)c1)CC(=O)N2 (stereo not drawn),0.0%,.,.,-0.8,1.8,.
Nc1[nH]ncc1C(=O)Nc1cccc(C(F)(F)F)c1,-2.7%,-31.4%[inhibitor],-2.1,-0.3,46.4,-9.3%
CN(Cc1cccnc1)C(=O)CC1C(=O)NCCN1Cc1ccc(-c2ccccc2)cc1 (stereo not drawn),.,-32.1%[inhibitor],-0.3,-0.7,-2.1,10.8%
CCc1nnc(NC(=O)C2CCN(c3nc(C)cc(C)n3)CC2)s1,-9.9%,12.3%,2.1,0.2,0.8,4.1%
C[C@H](NC(=O)C1CCN(S(=O)(=O)c2ccccc2)CC1)C(=O)NCc1ccc(Cl)c(Cl)c1,2.2%,5.5%,.,-0.2,16.9,-8.6%
CCc1cc2c(Nc3ccc(O)cc3)nc(C)nc2s1,-0.8%,6.8%,-0.7,0.5,-1.0,-22.6%
CC(=O)c1cccc(N(CC(=O)Nc2cccnc2)S(C)(=O)=O)c1,0.8%,?,4.0,0.2,29.6,7.2%
COc1ccc(C(=O)Nc2cc(OC)c(NC(=O)c3ccco3)cc2OC)cc1,-8.3%,-5.5%,5.7,3.6,-5.2,-19.8%
C/C(=N\NC(=O)c1nn(C)cc1Br)c1cccc(NC(=O)C2CCCC2)c1,-3.2%,-14.7%,-0.2,1.6,-10.0,-12.8%
O=C(C(=O)c1ccc(O)cc1)c1ccccc1,1.4%,12.5%,-2.8,0.4,23.0,4.8%
CC(C)CCN(C)C1CCN(S(=O)(=O)c2cccc(C(F)(F)F)c2)CC1,-0.7%,-0.1%,13.5,0.8,12.5,14.0%
COc1ccc2c(c1)CC(C(=O)NCCc1ccc(S(N)(=O)=O)cc1)CO2 (stereo not drawn),1.4%,.,.,-0.6,-4.1,.
C=C(C)COc1ccc(-c2[nH]ncc2-c2ccc(OC)cc2)c(O)c1,-17.7%,-24.8%,-0.6,1.5,-5.6,-13.2%
COc1ccc(OC)c(S(=O)(=O)NC(C)c2cnn(-c3ccccn3)c2C)c1 (stereo not drawn),-15.1%,-83.6%[inhibitor],.,0.1,-3.5,3.0%
Cc1nnc(N/N=C/c2ccc(Br)cc2)n1N,-1.4%,-21.3%,-6.1,0.7,18.4,8.0%
COC(=O)c1ccc(-c2nc3ccc(C)cc3o2)cc1,3.55µM*,4.2%,4.6,4.0,-1.1,-4.1%

# High-throughput results: PubChem BioAssay, National Center for Advancing Translational Sciences (NCATS)
